Assay outcomes as filed in PubChem BioAssay.
PABP polyA inh = PABP-poly(A) binding inhibition; PABP-poly(A) RNA binding, fluorescence polarization; inhibition, % at 35 µM; hit rate 1% among 290,000; AID 2014;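 active means 50% or more with normal probe brightness, or confirmed in later tests; inconclusive means above 50% with abnormal brightness, or retests that disagree; inactive means below 50% or failed in later tests; about a fifth of its hits are not listed in these tables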;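 further: calls also rest on retests at 20 µM and on dose response follow-up; controls were probe without protein and protein plus probe with vehicle; some compounds called inactive have numbers as strong as hits; many hits fall short of the cut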
Target sequence (P11940 whole entry, looked up): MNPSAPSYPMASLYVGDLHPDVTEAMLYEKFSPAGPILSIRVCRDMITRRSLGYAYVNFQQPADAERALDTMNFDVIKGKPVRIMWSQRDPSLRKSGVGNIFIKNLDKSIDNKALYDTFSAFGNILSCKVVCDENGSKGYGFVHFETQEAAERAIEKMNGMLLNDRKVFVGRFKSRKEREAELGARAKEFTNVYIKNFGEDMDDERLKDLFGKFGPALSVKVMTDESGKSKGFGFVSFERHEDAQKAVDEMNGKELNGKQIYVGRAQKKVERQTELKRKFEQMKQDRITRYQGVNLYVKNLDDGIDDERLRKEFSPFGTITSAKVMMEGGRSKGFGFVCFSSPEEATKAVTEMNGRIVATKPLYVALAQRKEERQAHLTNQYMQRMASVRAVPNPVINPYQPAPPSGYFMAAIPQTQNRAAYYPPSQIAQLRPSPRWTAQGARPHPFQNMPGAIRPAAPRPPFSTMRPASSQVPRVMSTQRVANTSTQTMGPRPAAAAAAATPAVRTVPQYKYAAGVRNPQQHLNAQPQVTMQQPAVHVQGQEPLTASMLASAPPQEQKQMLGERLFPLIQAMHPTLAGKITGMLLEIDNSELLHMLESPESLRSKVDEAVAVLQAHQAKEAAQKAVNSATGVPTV
Rce1 inh = yeast Ras-converting enzyme inhibition; Q03530; yeast membranes, quenched prenylated peptide cleavage fluorescence; calls only; hit rate 0.27% among 290,000;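 active means fall in fluorescence gain of 50% or more versus controls, with final raw signal at or below 3038400; inconclusive means same 50% fall but final raw signal above 3038400; inactive means fall in fluorescence gain under 50%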;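 further: plate controls were neutral control wells for no effect and wells lacking membranes for full effect; tested at 10 µM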
Yeast UUG start = alters start codon recognition fidelity in yeast; S. cerevisiae UUG-firefly luciferase reporter, luminescence/redox ratio; activity score, % at 18.7 µM; hit rate 0.13% among 350,000;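 active means replicate mean at a twofold rise or more, about +100% in these data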;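 further: firefly luciferase made from a UUG start codon reports start codon fidelity; reporter light over untreated wells divided by growth signal over untreated wells; some hits fall short of that in this replicate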
CSC inhib = blocks cancer stem cells. inhibition, % at 7.5 µM. hit rate 1.1% among 300,000. cancer stem cell-like cells viability, luminescence. AID 2717;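 active means mean at 75% or more and at least half the replicates too; inconclusive means mean and replicates disagree; tested in HMLE shEcad cells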;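 further: 0% = median of negative and 100% = median of positive control wells; the first replicate is given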
Env fusion inh = blocks HIV Env-driven cell-cell fusion; HeLa-JRFL Env/CEM21 cell fusion, luciferase; inhibition, % at 12.3 µM; hit rate 1.1% among 360,000;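 active means mean replicate inhibition score of at least 50 and every replicate individually at or above 50; inconclusive means only one of the two criteria met; inactive means mean below 50 and not all replicates reaching 50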;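 further: 0% = plate neutral controls and 100% = maraviroc near 300 nM; one replicate is shown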
eIF4H inh = inhibitors of RNA binding by human eIF4H. inhibition, % at 35 µM. eIF4H fluorescence polarization binding assay. Q15056. hit rate 0.94% among 290,000;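 active means 50% or more with normal probe brightness, or confirmed in later tests; inconclusive means above 50% with abnormal brightness, or retests that disagree; inactive means below 50% or failed in later tests; about a fifth of its hits are not listed in these tables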;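 further: calls also rest on retests at 20 µM and on dose response follow-up; 0% = protein and probe with vehicle and 100% = probe without protein; strong numbers were not always called active; many hits fall short of the cut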
MT1-MMP act inh = MT1-MMP (human) activation inhibition; HT1080 RFP-PRO-GFP cells, GFP/RFP ratio fluorescence, overnight; percent of plate control window, DMSO zero; GFP/RFP ratio change, % at 20 µM; hit rate 0.061% among 360,000; P50281;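 active means GFP/RFP ratio change of at least 30% with cell ATP level not reduced by more than half and red fluorescence within 50% of control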; further: strong numbers were not always called active
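Assay system: HT1080 cells carrying an RFP-PRO-GFP reporter | Dosing: Single dose of 20 µM compound, 1% DMSO final | Incubation: Cells overnight before dosing, compound overnight, 37 °C, 5% CO2 | Evaluation: GFP/RFP fluorescence ratio | Control set: DMSO and RFP-L50D-GFP cell wells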
MT1-MMP act inh RFP = further read-out of MT1-MMP act inh, marked with its call; RFP signal change, %; measured here: RFP expression control read;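 0 = vehicle wells; hits needed this value within 50% of zero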
Starred values were filed as active, the others as inactive; i = inactive; u = inconclusive; x = no result given. An excerpt, so the mix of outcomes need not match the whole.

SMILES	PABP polyA inh	Rce1 inh	Yeast UUG start	CSC inhib	Env fusion inh	eIF4H inh	MT1-MMP act inh	MT1-MMP act inh RFP
COc1cccc(Nc2nc(C)cc(C)c2C#N)c1	-6	x	-8	-13	-93	1	-7	-2
c1ccc(-c2ccc(CN3C[C@@H]4C(c5ccccc5)C5(c6ccccc6)CC4(C5)[C@H]3c3ccccc3)cc2)cc1 (stereo partly specified)	15	i	-9	14	-24	-7	0	-1
COc1ccc(/C=N/NC(=O)C[n+]2ccccc2)c(OC)c1	-12	i	x	-4	-5	-13	-1	7
Cc1nn2c(=O)cc(CSc3nc4ccccc4[nH]3)nc2s1	-5	i	-15	-1	7	6	5	8
O=C(O)CC(c1ccc(Cl)cc1)N1C(=O)CCC1=O (stereo unspecified)	-1	i	-7	-8	i	-5	1	4
O=C(NNc1nc2cc3c(cc2s1)OCO3)c1ccccc1	-1	i	-14	-3	6	1	2	2
COc1ccc(C2=NO[C@@H]3C(=O)N(c4ccc(C)cc4C)C(=O)[C@H]23)cc1OC	-6	x	-12	-19	-7	8	-2	0
CC(C)[C@H](NC(=O)c1ccccc1)C(=O)NCCc1ccccc1	6	i	-16	-7	-5	-2	-3	2
COc1ccc(CCNC(=O)c2ccccc2NS(=O)(=O)c2cc(C(=O)O)ccc2OC)cc1	-10	i	-9	-6	-6	0	4	4
Cc1nc2c(c(=O)n1CCC(C)C)c1nc3ccccc3nc1n2CC1CCCO1 (stereo unspecified)	-2	i	-13	-6	3	-11	6	1
CCOc1cc(C=O)ccc1OCCSc1ccc(C)cc1	6	i	-20	x	x	-4	1	-2
O=C(CNCC1(N2CCOCC2)CCCCC1)Nc1ccc(Cl)cc1	6	i	x	-12	-9	6	1	5
O=C(O)CC(CC(=O)O)(C(=O)O)c1ccccc1	5	i	x	12	11	-3	-3	2
Cc1ccc(C2C3=C(CCCC3=O)OC3=C2C(=O)CCC3)cc1	13	i	x	-23	x	-14	2	7
COc1cc(NC(=O)c2cc(-c3cccs3)on2)cc(OC)c1OC	-5	i	-5	x	45	11	5	-8
Cc1[nH]c(C)c(S(=O)(=O)NCCc2ccc(S(N)(=O)=O)cc2)c1C(=O)N1CCCC1	10	i	-17	-7	-3	-2	-2	0
Cc1ccc(C(=O)CSc2nnc(COc3cc(C)cc(C)c3)o2)cc1	-4	i	-20	9	7	-3	0	0
CCN1CCN(C(=O)C2CCN(S(=O)(=O)c3cccc4cccnc34)CC2)CC1	14	i	-10	-4	-126	5	-1	6
CC(C(=O)Nc1ccccc1Cl)c1ccc([N+](=O)[O-])cc1 (stereo unspecified)	-5	i	x	-12	4	4	-2	1
Cc1nn(-c2ccc(F)cc2)c(N)c1C1(O)C(=O)Nc2ccccc21 (stereo unspecified)	-7	i	x	-6	6	4	3	5

Results in PABP polyA inh and MT1-MMP act inh RFP, for two of the compounds above:
compound	PABP polyA inh	MT1-MMP act inh RFP
Cc1ccc(C(=O)CSc2nnc(COc3cc(C)cc(C)c3)o2)cc1	-4	0
CC(C(=O)Nc1ccccc1Cl)c1ccc([N+](=O)[O-])cc1 (stereo unspecified)	-5	1

Going on with the list:
SMILES	PABP polyA inh	Rce1 inh	Yeast UUG start	CSC inhib	Env fusion inh	eIF4H inh	MT1-MMP act inh	MT1-MMP act inh RFP
COc1ccc(-c2csc(NC(C)c3nc4cc(C(F)(F)F)ccc4n3CCOCCO)n2)cc1 (stereo unspecified)	x	i	-20	3	47	x	-5	-22
COc1ccc(-n2c(=O)[nH]c3cc(C(=O)NCCc4ccc(Cl)cc4)ccc3c2=O)cc1OC	-6	i	x	-8	20	-12	-7	-25
COc1ccc(C(C(=O)NC(C)(C)C)N(Cc2ccco2)C(=O)CCC(=O)Nc2ccccn2)cc1 (stereo unspecified)	2	i	-22	-20	2	-9	0	2
COc1ccc(S(=O)(=O)N2CCOCC2)cc1NC(=O)Cc1cccs1	x	x	-9	-15	-7	x	2	1
O=C(COc1ccccc1)NNC1=NS(=O)(=O)c2ccccc21	1	i	x	-11	4	-5	2	2
C[C@@H]1CN([C@@H](C)CO)C(=O)CCCn2cc(nn2)CO[C@H]1CN(C)S(=O)(=O)c1ccc(-c2ccccc2)cc1	x	x	13	x	-9	x	7	4
COc1cc(NC(=O)CSc2nc3[nH]ncc3c(=O)n2-c2ccc(Cl)cc2)cc(OC)c1	3	i	-14	15	-5	2	6	-1
Cc1ccc(NCc2ccccc2)cc1	u	i	x	-1	-12	0	-6	-3
CCC[C@@H]1Cc2ccccc2N1C(C)=O	x	x	-7	-13	-9	x	0	-2
Cc1cc2c(=O)n(C)c(SCC(=O)Nc3cccc(O)c3)nc2s1	10	i	-14	-13	-2	-11	-1	-2
COc1cc([N+](=O)[O-])ccc1NC(=O)CCCOc1ccc(C)cc1	3	i	-15	10	-8	3	4	1
CCOc1ccc(C(=O)Nc2ccc3nc(N4CCN(CC)CC4)cc(C)c3c2)cc1	-2	i	-3	45	-6	-19	11	5
CCc1nc(NCCc2ccccn2)c2nnn(Cc3ccccc3F)c2n1	2	i	-6	-8	-90	-6	0	-13
Cc1cc(C)c(C#N)c(Nc2ccccc2C)n1	-4	i	-24	-13	-5	-2	1	2
COc1cc(CO)ccc1OCc1nnnn1-c1ccc(C)cc1	5	i	1	14	4	-3	1	2
COc1cc(C(=O)OCC(=O)Nc2ccc(OC(F)F)cc2)cc(OC)c1OC	10	i	9	-18	3	-14	0	-2
CCOC(=O)c1c(NC(=O)c2cccs2)sc(C)c1CC	-8	x	-11	x	x	-6	-13	-8
CCOC(=O)N1CCN(C(=O)CSc2ncnc3ccccc23)CC1	-9	i	-16	-12	25	0	0	-2
Cc1ccc2oc(=O)c3cc(C(=O)Nc4cc(-c5cccc(F)c5)no4)sc3c2c1	1	i	x	-17	x	-2	x	x
CC(C)[C@H](NC(=O)CCCn1nnc2ccccc2c1=O)C(=O)O	-9	i	-12	-5	12	-2	3	4
Cc1oc2cc3oc(=O)ccc3cc2c1C	3	i	-5	-6	-8	-3	1	4
CCN(CC(=O)Nc1c(F)cccc1F)C(=O)c1ccc(-n2cncn2)c([N+](=O)[O-])c1	x	i	-3	7	x	x	2	-1
c1ccc(CNc2ccccn2)cc1	-4	i	-21	4	-6	-5	-2	0
O=S(=O)(NCCOc1ccccc1)c1ccc2ccccc2c1	-8	i	-11	-1	14	2	7	6
CC(C)(C)NC(=O)N1CCN(c2ncccc2C(F)(F)F)CC1	0	i	-10	-14	5	1	3	2
C#CCN(C(=O)c1cc(COc2cccc(C(F)(F)F)c2)on1)C1CCCCC1	12	i	-2	62	18	-9	0	-5
O=C(CN1C(=O)/C(=C2\SC(=S)N(C3CCS(=O)(=O)C3)C2=O)c2ccccc21)Nc1ccccc1 (stereo unspecified)	-6	x	x	x	x	-3	-5	-5
CC(=O)NNC(=O)c1[nH]c2ccc(Cl)cc2c1-c1ccccc1	-9	x	x	17	5	-14	-2	2
O=C(NCCc1ccccc1)c1oc2ccccc2c1COc1ccccc1	-7	i	-13	38	x	-7	-17	-18
Cc1ccc(NC(=O)c2cc(NC(=O)c3ccco3)ccc2N2CCOCC2)cc1	-3	i	-14	-3	12	-6	7	-2
CC(=O)c1ccc(-n2nnnc2SCC(=O)Nc2cccc(NC(=O)c3ccco3)c2)cc1	4	i	-15	x	x	-12	0	-13
O=[N+]([O-])c1ccc(CSc2ccc(S(=O)(=O)N3CCCCCC3)cn2)cc1	x	x	13	x	u	x	-3	-14
COC(=O)COc1ccc(NC(=O)C(c2ccccc2)c2ccccc2)cc1	3	i	-18	20	-1	5	0	4
O=C(NCc1ccccc1)c1[nH]c(C(F)(F)F)nc1-c1ccccc1	x	x	-10	x	-14	x	-4	-6
Clc1cccc(-c2ccc(CNCCCN3CCOCC3)o2)c1	13	i	x	18	8	5	3	-4
N#CC1=C(N)Oc2[nH]c(=S)[nH]c(=O)c2C12C(=O)Nc1ccccc12 (stereo unspecified)	7	i	0	-8	18	8	2	6
Cc1cc(C)c(S(=O)(=O)N2CCN(C(=O)N3CCOCC3)CC2)c(C)c1	5	i	-18	0	1	2	4	-1
COc1cc(/C=N/NC(=S)NCCN2CCOCC2)cc(OC)c1OC	-4	i	x	-1	-19	-9	2	3
Cc1ccc(NC(=O)CC(=O)Nc2ccc(C)cc2)cc1	-7	i	x	10	-1	13	-1	0
O=C(NCC(F)(F)F)[C@H]1O[C@@H](n2ccc(=O)[nH]c2=O)[C@H](O)[C@@H]1O	x	x	1	x	12	x	2	2
COc1cc(CNC(=O)C2CC(O)CN2C(=O)Nc2ccccc2)cc(OC)c1OC (stereo unspecified)	x	x	-17	x	-2	x	-1	3
COc1ccc(-c2ccc(C)cc2)cc1[C@H]1[C@H]2C=CC[C@@H](C)[C@@H]2C(=O)N1Cc1ccccc1	-5	i	-3	-2	56*	-13	-4	-16
O=C(Nc1ccc(Cl)c(C(F)(F)F)c1)NC1CC2CCCC(C1)N2Cc1ccccc1 (stereo unspecified)	49	i	x	u	18	-8	x	x
O=C1CCC(C(=O)Nc2ccccc2N2CCOCC2)=NN1	-4	i	x	-2	22	-6	0	1
O=C1Nc2c(ccc(Cl)c2Cl)C(=O)C1(F)c1ccccc1 (stereo unspecified)	5	i	x	8	2	1	-1	2
Cc1cccc(OCc2nnc(SCC(=O)Nc3ccc(C)c(Cl)c3)o2)c1	-2	i	7	-2	x	9	2	4
CCOC(=O)/C(N=Nc1ccc2c(c1)OCO2)=C(\C)O	-7	i	x	13	-97	-3	2	0
Cc1cc(C(=O)NNc2c(Cl)cccc2Cl)no1	-6	i	-15	-9	2	0	0	0
CCOC(=O)C1CCCN(C(=O)CSc2nc(C)cc(C)n2)C1 (stereo unspecified)	8	i	-11	7	3	12	-4	-1
Cc1cccc(OCCNC(=O)c2cc(-n3cnnc3)ccc2Cl)c1	2	i	-15	x	13	13	5	4
Carrying on.
SMILES	PABP polyA inh	Rce1 inh	Yeast UUG start	CSC inhib	Env fusion inh	eIF4H inh	MT1-MMP act inh	MT1-MMP act inh RFP
Cc1ccccc1-n1c(SC(C)C(N)=O)nnc1-c1cccnc1 (stereo unspecified)	-2	i	-11	x	-60	1	-2	1
Oc1ccc(Cl)cc1N=Nc1ccccc1	5	i	-13	-12	0	2	1	3
COc1cc(C2C(C(=O)c3cccs3)=C(O)C(=O)N2c2cc(C)on2)ccc1O (stereo unspecified)	17	i	-4	0	-54	-2	-3	-2
Cc1nc(N)sc1N=Nc1ccc(F)cc1	4	i	x	-5	x	5	5	7
CSc1ccc(S(=O)(=O)Nc2ccc(F)cc2)cc1	0	i	x	-8	x	-1	-1	-5
CC1(C(=O)NCc2ccc(F)c(F)c2)Cc2c(-c3ccc4c(c3)OCO4)ccnc2O1 (stereo unspecified)	x	x	-34	x	-114	x	-3	-11
COc1ccc(/C=C/C(=O)OC2CCCCC2CN(C)C)cc1 (stereo unspecified)	4	i	11	12	15	-1	-4	-3
COc1ccc(CC(=O)NCc2ccc(F)cc2)cc1S(=O)(=O)N1CCOCC1	x	x	6	x	4	x	0	0
COc1ccc(OCC(O)CNC(=O)c2sccc2Cl)cc1 (stereo unspecified)	-5	i	x	-3	8	-14	4	-1
C=CCCC(=O)N1CCCC(Cc2cccc(Cl)c2)(C(=O)OCC)C1 (stereo unspecified)	3	i	-10	-10	7	-4	-1	-8
N#Cc1c(-c2ccco2)cc(-c2cccnc2)nc1N	110*	i	-17	-11	-87	96*	-8	5
O=[N+]([O-])c1ccc(Cl)c(S(=O)(=O)Nc2ccc(S(=O)(=O)N3CCOCC3)cc2)c1	0	i	2	7	11	4	-2	-1
CCCCc1cc(=O)oc2cc(C)cc(OC(C)C(=O)NCc3cccnc3)c12 (stereo unspecified)	-4	i	-9	16	5	1	-7	-4
